Vaccinia Venus = inhibitors of vaccinia virus (Venus reporter); Vaccinia virus Venus reporter expression, fluorescence; Potency, µM (doses to about 36.5 µM), without a hit: at the highest dose activity change, negative = inhibition, hits mostly inhibitors; 330,000 tested, 0.46% active; active means well fitted inhibition curve with a large enough effect; inconclusive means small, poorly fitted or top-dose-only effect; inactive means no such curve, though single readings can be large or run the other way; tested in A549 cells; further: nearly all actives have a fitted effect of over 30% in size; inactives centre near -10
VACV mCherry inh = inhibitors of vaccinia virus infection (mCherry reporter signal). Vaccinia virus mCherry reporter infection, fluorescence; about a quarter of the inactives have no number. Potency, µM (top dose mostly 36.5 µM), for inactives: top-dose activity change, negative = inhibition, most hits filed as inhibitors. 310,000 tested, 0.63% active. AID 720579; active = well fitted inhibition curve with a large enough effect; inconclusive = small, poorly fitted or top-dose-only effect; inactive = no such curve, though single readings can be large or run the other way; tested in A549 cells; further: nearly all actives have a fitted effect of over 35% in size; inactives centre near -10
The depositor's hits bear a star; i = inactive; ? = inconclusive; . = no result given; [ ] = remark or other dose. On the % scale 0 is the no-effect control and ±100 the full control effect; potency means the concentration at half of the fitted maximal effect.

SMILES	Vaccinia Venus	VACV mCherry inh
O=C1N(Cc2cccc(Cl)c2)C[C@@H]2C[C@@H](c3cccc4ncccc34)N3CCC[C@@]123	-14%	-18%
CCOC(=O)C1(C)CCCN(C(=O)c2ccccc2)C1 (configuration not stated)	16%	-6%
Cc1ccc(NC(=O)COc2coc(CN3CCN(c4ccccc4)CC3)cc2=O)cc1	-5%	-13%
CC(C)(C)N1CC(C(=O)Nc2ccc(S(=O)(=O)N3CCCCC3)cc2)CC1=O (configuration not stated)	-3%	-4%
COc1ccccc1CNC(=O)C1CCC1	-6%	-1%
NS(=O)(=O)c1ccc(CCNc2ccccc2[N+](=O)[O-])cc1	-9%	-6%
COc1ccc(NC(=O)c2ccco2)cc1NC(=O)c1cccc(F)c1	-1%	i
Cc1ccc2nc(-c3ccc(NC(=S)NC4CC(C)(C)NC(C)(C)C4)cc3)sc2c1	-20%	-6%
CN(C)c1nc(C=C(C#N)C#N)c(Cl)n1-c1ccc(F)cc1	?	?
O=C(Nc1ccccn1)C1CCN(C(=O)c2ccc(Cl)cc2)CC1	-6%	i
Cc1ccc(-c2cc(C(=O)Nc3c(C#N)cnn3C)no2)cc1	-2%	-10%
CCC(c1nnnn1Cc1ccco1)N1CCN(C(=O)c2ccco2)CC1 (configuration not stated)	0%	-2%
CC(=O)N1CCOc2cc(S(=O)(=O)N(C)Cc3ccccc3)c(Cl)cc21	3%	-13%
CC(=O)c1c(C)n(CC2CCCO2)c2ccc(O)cc12 (configuration not stated)	-3%	?
CCc1nnc(NS(=O)(=O)c2ccc(Nc3ccc([N+](=O)[O-])c4nonc34)cc2)s1	-6%	-12%
NC(=O)CC(NC(=O)Cc1ccc(Br)cc1)c1ccc(NCCc2ccccc2F)c([N+](=O)[O-])c1 (configuration not stated)	-22%	-7%
O=S(=O)(CCc1nc2ccccc2o1)c1ccc(Cl)cc1	-16%	i
O=C(Nc1cnc2sccn2c1=O)c1ccccc1Cl	-1%	-10%
CCOc1ccc(NC(=O)CN(C)C(=O)c2cc(C)on2)cc1OCC	-8%	-17%
Cc1ccc(S(=O)(=O)NCC2CCC(C(=O)N3CCC4(CC3)OCCO4)CC2)cc1 (configuration not stated)	-19%	.
CCn1c(=O)c2cc(C(=O)NCc3ccc(F)cc3Cl)sc2c2ccccc21	-3%	-8%
O=C(COc1coc(CN2CCCc3ccccc32)cc1=O)Nc1ccc([N+](=O)[O-])cc1	-23%	-30%
O=C(Nc1ccc(Cl)cc1)c1cc(S(=O)(=O)N2CCCc3ccccc32)ccc1F	-8%[7.34 µM]	-15%[7.34 µM]
COC(=O)c1cn(NC(=O)c2ccc(OC)c([N+](=O)[O-])c2)c(=O)c2ccccc12	-5%	i
O=C(c1ccccc1)N1CCCCC(Sc2nnc3ccccn23)C1=O (configuration not stated)	-6%	-19%
CCOC(=O)C(=O)N(CC)C1CCS(=O)(=O)C1 (configuration not stated)	-1%	i
Cc1ccc(NC(=O)Cn2cc(S(=O)(=O)Cc3ccc(F)cc3)c3ccccc32)cc1Cl	-20%	-2%
COc1ccccc1-c1coc2c(CN3CCN(C)CC3)c(O)ccc2c1=O	11%	-9%
COC(=O)c1ccc(NC(=O)c2cnn(-c3ccc(Cl)cc3)c2C2CCN(C(=O)OC(C)(C)C)CC2)cc1	-27%	-28%
COc1ccc(NC(=O)CSc2nnc(C)n2C2CCCCC2)cc1	-1%	i
C[N+]12CCC(CC1)C(=C(c1ccccc1)c1ccccc1)C2	?	?
O=C(CSc1ncc(-c2ccccc2)n1C1CCCC1)N1CCc2ccccc21	-20%	?
COc1ccc(C2C(C(=O)NCc3ccccn3)c3cc(OC)c(OC)cc3C(=O)N2C)cc1 (configuration not stated)	?	-8%
Cc1[nH]c2ccccc2c1/C=N\NC(=O)CNc1ccc2c(c1)OCO2	-1%	-8%
O=C(CN1CCN(C2CCCCC2)CC1)c1c[nH]c2ccccc12	-2%	-6%
COc1ccc(C(=O)CC2(O)C(=O)Nc3c(C)cccc32)c(OC)c1OC (configuration not stated)	-1%	-8%
Cc1[nH]c2ccccc2c1CN1CCCCC1	-19%	?
Cc1ccc(NC(=O)C2CCCN(c3ncccn3)C2)cc1C (configuration not stated)	2%	-2%
Cc1ccc(N2C(=O)CC(N3CCc4ccccc43)C2=O)cc1Cl (configuration not stated)	4%	7%
O=C1c2ccccc2C(=O)c2c(/C=C/N3CCCCC3)ccnc21	25%	-24%
CC(=O)c1ccc(S(=O)(=O)N(C)CCCC(=O)N2CCN(c3ncccn3)CC2)cc1	-15%	-2%
Nc1nnc(CSCc2ccc(F)cc2)s1	-23%	i
CC(C)C1Cc2[nH][nH]c(=O)c2C(C2CC2)O1 (configuration not stated)	4%	-3%
Cc1nn2c(NCCCN(C)C)c3c(nc2c1-c1ccccc1)CCC3	-14%	-15%
O=C(NC(C(=O)N1CCCC1C(=O)O)=C1CCCCC1)c1ccccc1 (configuration not stated)	-9%	-24%
Cc1ccc2[nH]c(=O)c(CNC(C)(C)C)cc2c1	0%	.
O=C1NC(=O)C2(CCN(S(=O)(=O)c3ccccc3)CC2)C(=O)N1	-15%	-12%
CCOC(=O)C1=C(N)N2C(=O)C(C)SC2=C(C(=O)OCC)C1c1ccccc1 (configuration not stated)	7%	.
C[C@H](NC(=O)c1ccccc1Cl)C(=O)OCC(=O)NNC(=O)c1cccs1	3%	2%
CC(=O)Nc1ccc(S(=O)(=O)N2CCN(Cc3nc4sc(C)c(C)c4c(=O)[nH]3)CC2)cc1	-5%	-4%
Cc1ccc(S(=O)(=O)N(C)CCCC(=O)Nc2ccc(F)cc2)cc1	?	?
CC(NCc1ccc(Cl)c(Cl)c1)C(O)c1ccccc1 (configuration not stated)	-18%	i
COc1ccccc1OCCn1c(=O)n(C)c2ccccc21	-1%	i
O=C(Nc1cccc(S(=O)(=O)N2CCOCC2)c1)C1CCCN(C(=O)c2ccc(Cl)cc2)C1 (configuration not stated)	-15%	-12%
NC(=O)c1oc2ccccc2c1NC(=O)CS(=O)(=O)c1ccccc1	-15%	-20%
C[C@H]1CN([C@@H](C)CO)C(=O)CCCn2cc(nn2)CO[C@@H]1CN(C)C(=O)CCC(F)(F)F	-14%	-8%
O=C(O)c1ccc2c(c1)C(=O)N(c1cccc(S(=O)(=O)Nc3cccc(C(F)(F)F)c3)c1)C2=O	-2%	i
COc1ccc(NC(=O)c2sc(=O)n(Cc3ccc(SC)cc3)c2C)cc1OC	-5%	0%
COc1ccc(OC)c(/C=C/C(=O)OCC(=O)Nc2cccc(C(C)=O)c2)c1	-6%	i
C=CCN1C(=O)C(Cc2ccc(F)cc2)S/C1=N/N=C/c1ccco1 (configuration not stated)	-2%	-7%

Single entries from the list.
Reading of CC(=O)Nc1ccc(S(=O)(=O)N2CCN(Cc3nc4sc(C)c(C)c4c(=O)[nH]3)CC2)cc1 in Vaccinia Venus: -5%
Reading of COc1ccc(OC)c(/C=C/C(=O)OCC(=O)Nc2cccc(C(C)=O)c2)c1 in Vaccinia Venus: -6%
Reading of O=C(O)c1ccc2c(c1)C(=O)N(c1cccc(S(=O)(=O)Nc3cccc(C(F)(F)F)c3)c1)C2=O in Vaccinia Venus: -2%
Reading of C=CCN1C(=O)C(Cc2ccc(F)cc2)S/C1=N/N=C/c1ccco1 (configuration not stated) in VACV mCherry inh: -7%
Reading of CC(=O)c1ccc(S(=O)(=O)N(C)CCCC(=O)N2CCN(c3ncccn3)CC2)cc1 in Vaccinia Venus: -15%
Reading of O=C(NC(C(=O)N1CCCC1C(=O)O)=C1CCCCC1)c1ccccc1 (configuration not stated) in VACV mCherry inh: -24%

Given as labelled records: four of the compounds above
NC(=O)c1oc2ccccc2c1NC(=O)CS(=O)(=O)c1ccccc1
  Vaccinia Venus: -15%; VACV mCherry inh: -20%

C[C@H]1CN([C@@H](C)CO)C(=O)CCCn2cc(nn2)CO[C@@H]1CN(C)C(=O)CCC(F)(F)F
  Vaccinia Venus: -14%; VACV mCherry inh: -8%

O=C(O)c1ccc2c(c1)C(=O)N(c1cccc(S(=O)(=O)Nc3cccc(C(F)(F)F)c3)c1)C2=O
  Vaccinia Venus: -2%; VACV mCherry inh: i

COc1ccc(NC(=O)c2sc(=O)n(Cc3ccc(SC)cc3)c2C)cc1OC
  Vaccinia Venus: -5%; VACV mCherry inh: 0%

Next section:
SMILES	Vaccinia Venus	VACV mCherry inh
COc1ccccc1N1CCN(C(=O)C2CCN(S(=O)(=O)c3ccccc3)CC2)CC1	-14%	i
COC(=O)C1CN(C(=O)C(C)Oc2ccccc2Cl)c2ccccc2O1 (configuration not stated)	-17%	i
Cc1ccc(NC(=O)C(c2ccccc2)N(C)C)cc1Cl (configuration not stated)	-14%	i
Cc1ccccc1-n1c(SCC(=O)NC(N)=O)nc2sc(-c3ccccc3)cc2c1=O	-28%	?
Cc1oc(-c2ccc(C(=O)NCc3ccc(F)cc3)cc2)nc1CS(=O)c1ccccc1 (configuration not stated)	-21%	-21%
O=C(COC(=O)c1cccs1)NCCN1C(=O)CSC1=O	-9%	-20%
N#Cc1c2n(c3c(=O)n(Cc4ccc(Cl)cc4)cnc13)CCCCC2	?	.
NC(=O)CC(NC(=O)Cc1ccc(Cl)cc1)c1ccc(NCCc2ccccc2F)c([N+](=O)[O-])c1 (configuration not stated)	-12%	-9%
CCO/C(C)=N/Oc1cncnc1	1%	29%
COC(=O)c1ccc(-c2ccc(C(c3c(C)[nH][nH]c3=O)c3c(C)[nH][nH]c3=O)o2)cc1	-15%	-1%
O=C(Nc1ccc(Cc2nc3ccccc3s2)cc1)c1ccncc1	-17%	-24%
CCOC1=C2[C@H](c3ccccc3F)N(S(=O)(=O)c3ccc(C)cc3)C[C@H]2n2c(=O)n(-c3ccccc3)c(=O)n2C1	4%	26%
COc1cccc(C2c3c(oc4ccc(C)cc4c3=O)C(=O)N2CCCN2CCOCC2)c1OC (configuration not stated)	-6%	i
CCCN1CCCc2cc(CN(CCCN3CCOCC3)C(=O)Nc3ccc(OCC)cc3)ccc21	-15%	i
COc1cc(C)c(NC(=S)Nc2ccc(C)c(Cl)c2)cc1OC	-20%	-5%
Cn1c(SCC(=O)N2CCCC2)nc2cccnc21	1%	i
CN(C)c1oc(/C=C/c2cccs2)nc1S(=O)(=O)c1ccccc1	-12%	-19%
CCc1ccccc1NC1=NCC(=O)N1Cc1ccccc1	-9%	-15%
CCCCNCC#CCOc1cc(C)ccc1C(C)C	?	-26%
Cc1[nH]c(=O)cc2ccccc12	-4%	.

Quoted at random: 5 compounds from above.
SMILES	Vaccinia Venus	VACV mCherry inh
COc1cc(C)c(NC(=S)Nc2ccc(C)c(Cl)c2)cc1OC	-20%	-5%
COC(=O)c1ccc(-c2ccc(C(c3c(C)[nH][nH]c3=O)c3c(C)[nH][nH]c3=O)o2)cc1	-15%	-1%
Cc1ccccc1-n1c(SCC(=O)NC(N)=O)nc2sc(-c3ccccc3)cc2c1=O	-28%	?
CCc1ccccc1NC1=NCC(=O)N1Cc1ccccc1	-9%	-15%
COC(=O)C1CN(C(=O)C(C)Oc2ccccc2Cl)c2ccccc2O1 (configuration not stated)	-17%	i

(listing goes on)
SMILES	Vaccinia Venus	VACV mCherry inh
CC1=C(C(=O)Nc2ccccc2C)C(c2cccs2)NC(=S)N1 (configuration not stated)	-16%	i
O=C(NCCOc1ccc(F)cc1)c1ccccc1SCc1ccccc1	1%	i
CN1CCN(C(=O)c2cnn(-c3cccc(F)c3)c2C2CCN(C(=O)OC(C)(C)C)CC2)CC1	-6%	-12%
COC(=O)CCCC1=CC2=C(c3ccccc3)C(=O)C(C)(OC(=O)C3CCCC3)C(=O)C2=CN1CC1CC1 (configuration not stated)	-2%	i
COc1ccc(-c2noc(C(C)NC(=O)c3ccco3)n2)cc1OC (configuration not stated)	-6%	0%
CCOc1ccccc1NC(=S)N1CCN(c2ccccc2F)CC1	-10%	-3%
O=C(CNc1ccc(F)cc1F)NC(=O)NCc1ccco1	-2%	-6%
CCOc1ccc(C2C(C(N)=O)=C(C)Nc3nc(SCc4ccccc4F)nn32)cc1 (configuration not stated)	7%	-11%
COc1ccc2c(c1)CO[C@@]21O[C@H](CCO)C[C@H](O)[C@H]1O	-7%	4%
O=C(c1sc2cc(F)ccc2c1Cl)N1CCN(c2ccccc2)CC1	-16%	-16%
Cc1ccccc1/C=C/C(=O)c1ccc([N+](=O)[O-])o1	?	?
CCOc1ccc(N2CC(C(=O)Nc3cc(S(=O)(=O)N4CCCCC4)ccc3C)CC2=O)cc1 (configuration not stated)	-19%	i
CCC(C(=O)OC)n1cnc2c(nnn2-c2cccc(Cl)c2)c1=O (configuration not stated)	-15%	-17%
CC1Cc2ccccc2N1CC(=O)Nc1ccc(N2CCOCC2)cc1 (configuration not stated)	-13%	-20%
COC(=O)c1ccc(CNC(=O)CSc2nc3sc(C)c(C)c3c(=O)n2C)o1	-9%	-14%
COc1ccc(-c2coc3c(C(=O)NC(C)C)cccc23)c(C)c1	-5%	i
O=C(Nc1nc(-c2ccco2)c(-c2ccco2)s1)C1CCC1	-16%	-4%
CN(C)c1cccc(C(=O)OCC(=O)NCc2ccco2)c1	4%	-13%
Cc1cc(NC(=O)CSc2nnc(-c3c[nH]c4ccccc34)n2-c2ccc(F)cc2)no1	0%	i
COC(=O)c1ccc(CN(c2ccc(OC)cc2)S(=O)(=O)c2ccccc2)cc1	-23%	-10%
CCc1cccc(NC(=S)N2CCC(c3ccccc3)C2)c1 (configuration not stated)	-11%	-14%

High-throughput results: PubChem BioAssay, National Center for Advancing Translational Sciences (NCATS)
